Screens: PubChem BioAssay, several laboratories
Sa ugtP lethal = growth inhibition of S. aureus ugtP deletion strain; S. aureus RN4220 ugtP deletion, OD600 growth, 16 h; some inactives read as strong as hits; growth inhibition, % (test concentration not listed); 0.54% of 330,000 active;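 active = z-score under -3 and OD600 up to 0.15 on both plates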;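 also: plate controls were untreated wells for no effect and antibiotic for full effect; wells of about 80 µL received 100 nL stock; the first replicate is given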
BJeLR lethal = BJeLR cell viability loss; BJeLR (HRASV12) viability, CellTiter-Glo ATP luminescence, 48 h; reference of the scale not given here; inhibition, % (test concentration not listed); 0.17% of 300,000 active;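 active = replicate mean above 50%; inconclusive = above 50% but judged a plate artefact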;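 also: 50 nL library stock added to about 25 µL; numbers are from one replicate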
Mtb hypoxia rep = inhibitors of hypoxia-regulated fluorescent reporter in Mycobacterium tuberculosis. M. tuberculosis hypoxia-regulated fluorescent reporter, fluorescence. fluorescence inhibition, % (no concentration beside the values). 0.1% of 300,000 active;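 active = 35 to 45% if threefold the growth effect, above 45% if 1.5-fold the growth effect; inactive = the rest, general growth blockers included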;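 also: wells of about 50 µL received 100 nL stock; 0% = vehicle wells and 100% = reference inhibitor wells; whole bacteria with a GFP reporter of the hypoxia response; strong numbers were not always called active; many hits fall short of the cut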
PrP UTR inh = inhibition of PrP 5' UTR reporter expression | cell-based PrP 5' UTR mRNA reporter, plate reader | inhibition, % (test concentration not listed) | 0.35% of 340,000 active;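 active = every replicate at 50% or more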;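 also: 0 = median of the neutral control wells; tested in H4 reporter cells; numbers are from one replicate; inactives centre near -14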
Autofluor counter = flagged as autofluorescent in microsphere protease counterscreen; compound autofluorescence counterscreen, microsphere flow cytometry; hits give high values; fluorescence intensity (concentration not given with the values); 3.1% of 360,000 active; AID 624483;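 active = at least 3 SD above the mean of all compounds, about 16000 in these data; inconclusive = too few beads counted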;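 also: 100 nL of 1 mM stock went into each well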
Sa RN4220 lethal = S. aureus RN4220 growth inhibition | OD600, 16 h | inhibition, % (test concentration not listed) | 0.33% of 330,000 active;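 active = z-score of -3 or lower and OD600 up to 0.18 on both plates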;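 also: plate controls were untreated cells for no effect and reference antibiotic for full effect; stock transfer was 100 nL into about 80 µL; one replicate is shown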
Mtb hypoxia rep growth = second read-out of Mtb hypoxia rep, no call of its own (marks repeat the call); growth inhibition, %; measured here: M. tuberculosis growth (absorbance);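 0% = vehicle and 100% = reference antibiotic; read after six days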
The depositor's hits bear a star; ? = inconclusive; . = no result given. No enrichment for hits. Share with any hit: about 4%.

SMILES	Sa ugtP lethal	BJeLR lethal	Mtb hypoxia rep	Mtb hypoxia rep growth	PrP UTR inh	Autofluor counter	Sa RN4220 lethal
COc1ccc(S(=O)(=O)N2CCC(C(=O)N3CCCC3)CC2)cc1Cl	3.3	-2.8	-12.8	-3.2	-7.3	2403	2.5
COc1ccc(N2CC(C(=O)Nc3nc(-c4ccccc4)c(C(C)=O)s3)CC2=O)c(OC)c1 (configuration not stated)	-9.4	-14.2	-4.2	-8.9	-9.7	4164	-5.2
Cc1nn(C(C)C(=O)NCc2cccs2)c(=O)c2nn(-c3ccccc3)c(C)c12 (configuration not stated)	10.8	-2.4	16.9	-1.1	-21.8	5909	3.5
CCCCNC1=CC(=O)C(=O)c2ccccc21	76.7	10.8	8.5	14.3	-32.1	4530	73.9
COCCCn1cnc2oc3nc4ccccc4nc3c2c1=O	1.9	-2.2	9.3	5.5	-38.3	3002	5.4
CON/C=C(\C=Nc1ccccc1)c1ncc(C(F)(F)F)cc1Cl	95.9*	-14.4	3.9	1.7	-23.7	?	-1.1
COc1ccc(-c2nn(CCC(=O)O)cc2C=NNC(N)=S)cc1	5.9	.	10.9	-2.6	.	.	1.9
CCCCNC(=O)c1ccccc1C(=O)NCCCC	2.6	-1.9	6.2	1.3	-13.7	9474	2.5
Cc1nc(SCc2nc3ccc(C(F)(F)F)cc3[nH]2)c2oc3ccccc3c2n1	4.4	.	10.4	15.1	-8.7	3561	-10.5
C[C@H]1CN=C(N(C)C)N1CC1CCCC1	4.1	.	10.8	8.9	-14.0	3086	-9.3
COc1ccc(OC)c(CCNC(=O)CN2C(=O)CC(C)(C)S(=O)(=O)c3ccccc32)c1	4.2	-1.9	.	.	-14.4	6099	4.5
CCOC(=O)N1CCC(NCc2c(C(=O)N(C)Cc3ccccc3)nc3ccccn23)CC1	0.4	-1.5	2.5	12.3	-11.9	2240	2.2
CSc1nc(-c2ccccc2)c2cc(Cl)ccc2n1	52.4	.	1.7	8.1	-34.8	2168	0.2
Cc1cc(/C=C2/C(=O)NC(=O)N(Cc3ccco3)C2=O)c(C)n1-c1ccccc1O	6.5	14.0	13.5	0.6	-12.1	3605	3.4
CCc1nn(CC(=O)NCCCN2CCN(CC)CC2)c(=O)c2cc3occc3n12	1.2	5.9	7.1	3.8	-9.8	5761	4.6
COc1ccc(C=NNC(=O)c2[nH]c3ccc(Br)cc3c2-c2ccccc2)c(C(=O)O)c1OC	10.7	.	-7.1	-1.7	.	.	2.5
CSc1ccc(CCNC(=O)c2nn(C)c3c2CS(=O)(=O)c2ccccc2-3)cc1	19.6	-7.9	-0.6	9.0	-13.1	5772	9.5
CC(C)OCCCNC(=O)c1ccc(CS(=O)(=O)Cc2ccccc2F)o1	6.2	2.7	10.3	1.0	-25.6	20731*	3.6
O=C(COC(=O)c1ccc(OC(F)F)cc1)NCc1cccs1	6.3	.	9.3	1.6	2.8	5735	0.4
CC(C)c1ccc(C(=O)NN2C(=O)C3CCCCC3C2=O)cc1 (configuration not stated)	.	-9.5	.	.	-60.5	7130	.
CCCCNC(=O)C(=O)NN=Cc1ccc(OCC(=O)Nc2cccc(OC)c2)c(OC)c1	4.1	.	3.9	-12.2	.	.	1.5
CCOc1ccc(C(C)NC(=O)c2ccccc2F)cc1 (configuration not stated)	12.0	-6.0	.	.	-20.9	9922	1.8
Cc1ccc2c(Cl)c(C(=O)NCCc3ccccc3)sc2c1	9.3	-2.7	-5.5	5.6	-58.8	2265	9.3
CC(C)Sc1nc2[nH]ncc2c(=O)[nH]1	10.2	5.2	8.4	14.2	-14.8	2260	1.7
O=C1NC2(CCCCC2)C(=O)N1Cc1cccc(C(F)(F)F)c1	-0.7	6.3	11.8	5.4	26.9	5287	4.0
CCc1ccc(OC(C)C(=O)Nc2ccc(S(=O)(=O)Nc3cc(C)on3)cc2)cc1 (configuration not stated)	2.3	-7.7	14.5	4.1	-26.7	3721	8.5
CCOC(=O)c1[nH]c(C)c(C(=O)OCC(=O)Nc2sc3c(c2C#N)CCCCC3)c1C	-4.2	-2.6	3.3	-3.4	-16.0	4082	-3.1
Cc1ccc(CC2CC(=O)N(c3cc(Cl)ccn3)C2=O)cc1 (configuration not stated)	2.6	-0.1	16.5	6.0	-12.3	3967	2.6
COc1ccccc1/C=N/NC(=O)C(NC(=O)c1ccccc1)=C(C)C	.	-0.4	.	.	-15.9	3946	.
CSCCC(NC(=O)c1ccc(=O)n(C)n1)c1nc2ccccc2[nH]1 (configuration not stated)	-2.0	-3.3	-4.3	-1.6	-4.1	4171	-0.4
COc1ccc(Br)cc1S(=O)(=O)N1CCN=C1c1ccccc1	2.3	6.5	5.7	6.4	1.1	?	7.3
COc1ccccc1C(=O)Nc1ccccc1SC(=O)c1ccccc1OC	89.3*	5.0	-3.3	17.6	-70.0	3548	21.7
COc1ccc(NC(C)=O)cc1NC(=O)c1ccc2ccccc2c1	-1.0	3.3	-2.7	3.9	-10.6	3956	5.1
CC(CCc1ccccc1)NC(=O)c1ccc(Br)o1 (configuration not stated)	-0.9	-3.4	.	.	-7.4	3466	1.6
COc1cccc(C(=O)NCCS(=O)(=O)NCCc2ccc(OC)c(OC)c2)c1	5.6	1.1	2.4	2.4	-19.2	5403	2.7
Cc1cccc(N2CCN(C(=S)Nc3ccc4nc(N5CCN(C)CC5)cc(C)c4c3)CC2)c1C	6.8	70.6*	0.3	2.6	-1.7	4013	0.4
CN(C)C(=O)CCCc1nc(-c2ccc(Cl)cc2)no1	2.1	-11.9	2.4	-4.2	-38.2	11379	4.1
COCc1nnc(NS(=O)(=O)c2c(C)cc(C)cc2C)s1	-8.8	-2.6	12.2	3.7	-6.8	23383*	6.0
O=C(Nc1ccc2c(c1)Cc1cc([N+](=O)[O-])ccc1-2)C(F)(F)F	0.3	.	-2.1	7.0	.	3487	1.9
COC(=O)c1ccccc1Oc1cc(C(F)(F)F)nc(-c2ccccn2)n1	2.2	3.5	-0.5	-1.5	-22.1	3968	-0.1

Reformatted: results already given.
structure,Sa ugtP lethal,BJeLR lethal,Mtb hypoxia rep,Mtb hypoxia rep growth,PrP UTR inh,Autofluor counter,Sa RN4220 lethal
COc1ccc(NC(C)=O)cc1NC(=O)c1ccc2ccccc2c1,-1.0,3.3,-2.7,3.9,-10.6,3956,5.1
CC(CCc1ccccc1)NC(=O)c1ccc(Br)o1 (configuration not stated),-0.9,-3.4,.,.,-7.4,3466,1.6
COc1cccc(C(=O)NCCS(=O)(=O)NCCc2ccc(OC)c(OC)c2)c1,5.6,1.1,2.4,2.4,-19.2,5403,2.7

(next part)
SMILES	Sa ugtP lethal	BJeLR lethal	Mtb hypoxia rep	Mtb hypoxia rep growth	PrP UTR inh	Autofluor counter	Sa RN4220 lethal
O=C(O)CSc1nnc(-c2cccnc2)n1Cc1ccccc1	9.9	-1.7	14.5	1.8	-15.6	8751	5.1
CCOc1ccccc1NC(=O)CC(O)(C(F)(F)F)C(F)(F)F	-2.3	6.9	2.7	5.7	-7.4	4013	4.2
CCN(Cc1ccccc1)S(=O)(=O)c1ccc(S(=O)(=O)N2CCN(C)CC2)cc1	7.6	7.7	2.7	12.2	-5.4	8867	1.2
CN(C(=O)c1cnc2n(c1=O)CCS2)C1CCCCC1	-3.9	-3.8	1.1	-0.2	-9.5	4967	3.0
CCC(C(=O)NCCCN1CCN(CC)CC1)n1nc(C)n2c(cc3occc32)c1=O (configuration not stated)	3.8	14.4	1.4	0.6	-8.8	5705	4.0
O=C(CCS(=O)(=O)c1ccc(Cl)cc1)N1CCN(c2ccccc2F)CC1	10.8	5.6	13.1	10.3	-13.5	4300	2.8
COc1ccc(CNC(=O)C2CCN(c3nccs3)CC2)cc1	-2.4	3.8	.	.	-7.9	4375	0.2
CCCN1Cc2cccc(C(=O)NC(C)c3cccs3)c2C1=O (configuration not stated)	10.5	-5.6	9.8	8.2	-7.9	6454	6.1
c1ccc(-c2ccc(C3=Nn4c(nnc4-c4cc(-c5ccccc5)n[nH]4)SC3)cc2)cc1	-43.1	6.4	21.6	35.5	-6.8	18459*	-2.0
CCc1[nH]c(=O)[nH]c1C(C)S(=O)(=O)c1ccc(C)cc1 (configuration not stated)	8.8	.	-1.7	9.8	-29.0	4747	0.8
Cc1cc(NC(=O)Nc2ccc(C)c(C)c2)no1	-7.1	2.0	15.1	4.1	-27.4	2214	0.7
CSc1ncc(C(=O)Nc2ccc(C)cc2C)c(C)n1	4.0	-0.5	-4.2	5.1	-12.2	4127	4.4
CCC(OC(=O)C1=Cc2ccccc2OC1)C(=O)NC1CCCC1 (configuration not stated)	8.3	-1.1	6.1	4.2	-8.3	5125	-0.8
CCN(CC)CCNC(=O)c1ccc(NC(=O)c2ccc(S(=O)(=O)N(C)c3ccccc3OC)cc2)cc1	1.8	.	10.9	9.5	-5.0	.	7.4
CCN(CC)S(=O)(=O)c1ccc(NC(=S)NC(=O)C(C)C)cc1	31.8	-19.6	-1.6	1.4	-14.1	2569	-5.6
CCOC(=O)c1oc2ccccc2c1CN1CCOCC1	-0.7	2.7	2.5	-0.3	-3.6	21460*	3.4
CSCCC(NS(=O)(=O)c1ccc2c(c1)oc(=O)n2C)C(=O)NC1CCCc2ccccc21 (configuration not stated)	-0.5	6.2	2.1	-0.4	-4.4	5935	-8.0
CC(NC(C(=O)c1ccccc1)c1ccccc1)c1ccccc1 (configuration not stated)	38.6	.	22.9	-1.3	-5.2	2964	-2.4
CCn1cc(C(=O)N(C)c2cc(C)ccc2OC)c2cc(OC)c(OC)cc2c1=O	8.9	-6.9	-5.3	-12.5	-4.9	2804	1.3
O=C(NCC(=O)N1CCN(S(=O)(=O)c2cccc(F)c2)CC1)c1ccc(Br)o1	3.5	-12.7	-0.4	1.0	-25.6	5717	0.1

Part of the list above in order of heavy-atom count, rising.
SMILES	Sa ugtP lethal	BJeLR lethal	Mtb hypoxia rep	Mtb hypoxia rep growth	PrP UTR inh	Autofluor counter	Sa RN4220 lethal
Cc1cc(NC(=O)Nc2ccc(C)c(C)c2)no1	-7.1	2.0	15.1	4.1	-27.4	2214	0.7
CSc1nc(-c2ccccc2)c2cc(Cl)ccc2n1	52.4	.	1.7	8.1	-34.8	2168	0.2
Cc1ccc2c(Cl)c(C(=O)NCCc3ccccc3)sc2c1	9.3	-2.7	-5.5	5.6	-58.8	2265	9.3
COc1ccccc1/C=N/NC(=O)C(NC(=O)c1ccccc1)=C(C)C	.	-0.4	.	.	-15.9	3946	.
O=C(CCS(=O)(=O)c1ccc(Cl)cc1)N1CCN(c2ccccc2F)CC1	10.8	5.6	13.1	10.3	-13.5	4300	2.8
COc1ccc(OC)c(CCNC(=O)CN2C(=O)CC(C)(C)S(=O)(=O)c3ccccc32)c1	4.2	-1.9	.	.	-14.4	6099	4.5

The results go on.
SMILES	Sa ugtP lethal	BJeLR lethal	Mtb hypoxia rep	Mtb hypoxia rep growth	PrP UTR inh	Autofluor counter	Sa RN4220 lethal
COC(=O)CCC(=O)N1CCc2cc(S(=O)(=O)N3CCc4ccccc43)ccc21	-6.1	4.9	.	.	-16.2	2228	6.4
CCOc1ccc(CC(=O)C2C(=O)CC(C)(C)CC2=O)cc1OCC	-0.6	-9.9	5.1	5.7	2.2	3995	4.2
CCOC(=O)N1CCN(C(=O)c2cc3c(s2)-c2ccccc2OC3)CC1	5.2	-10.8	2.7	12.7	16.8	5587	4.6
COc1cc(OC)cc(C(=O)Nc2cccc(NC(C)=O)c2)c1	3.1	-11.5	13.4	1.5	-14.3	6375	-0.2
COc1ccc(OC)c(NC(=O)c2nc(-c3ccccc3)oc2C)c1	-1.8	-4.2	-2.3	-1.1	-15.0	5024	3.2
c1ccc(Nc2nc(-c3ccncc3)cs2)nc1	0.6	2.5	10.8	4.0	-51.7	2944	11.0
COc1ccc(COC(=O)NN=C(C)CC(=O)Nc2ccc(Cl)cn2)cc1	2.5	.	4.6	13.4	.	.	2.6
COc1cccc2sc(N=CN(C)C)nc12	4.3	.	3.8	8.5	.	.	2.8
CS(=O)(=O)N(CC(=O)Nc1ccccc1C(=O)N1CCCC1)c1ccc2c(c1)OCO2	6.1	-3.8	4.8	-2.3	-8.1	4687	3.8
O=C(NCCCNC(=O)c1cccnc1)c1ccc(Cl)cc1	10.0	2.3	3.6	3.1	-23.6	3528	-2.6

Some of the entries above, set out differently:
Order of results – Sa ugtP lethal	BJeLR lethal	Mtb hypoxia rep	Mtb hypoxia rep growth	PrP UTR inh	Autofluor counter	Sa RN4220 lethal
COc1ccc(C=NNC(=O)c2[nH]c3ccc(Br)cc3c2-c2ccccc2)c(C(=O)O)c1OC
  10.7	.	-7.1	-1.7	.	.	2.5
CCCCNC1=CC(=O)C(=O)c2ccccc21
  76.7	10.8	8.5	14.3	-32.1	4530	73.9
